MT1-MMP act inh: blocks activation of human MT1-MMP; P50281; HT1080 RFP-PRO-GFP cells, GFP/RFP ratio fluorescence, overnight; percent of plate control window, DMSO zero; GFP/RFP ratio change, % at 20 µM; hit rate 0.061% among 360,000; AID 651647;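 active = GFP/RFP ratio change of at least 30% with cell ATP level not reduced by more than half and red fluorescence within 50% of control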; note: strong numbers were not always called active
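Assay system: HT1080 RFP-PRO-GFP cells. Benchmarks: DMSO vehicle wells and RFP-L50D-GFP reporter cell wells. Times: overnight cell settling, then overnight compound exposure, 37 °C, 5% CO2. Compound: 20 µM single dose, 1% DMSO. Read-out basis: GFP/RFP fluorescence ratio.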
Env fusion inh: HIV envelope-mediated fusion inhibition | inhibition, % at 12.3 µM | AID 651610 | HeLa-JRFL Env/CEM21 cell fusion, luciferase | hit rate 1.1% among 360,000;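 active = mean replicate inhibition score of at least 50 and every replicate individually at or above 50; inconclusive = only one of the two criteria met; inactive = mean below 50 and not all replicates reaching 50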;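 note: 0% = plate neutral controls and 100% = maraviroc near 300 nM; one replicate is shown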
eIF4H FP inh: inhibitors of RNA binding by human eIF4H; eIF4H fluorescence polarization binding assay; inhibition, % at 35 µM; hit rate 0.94% among 290,000; AID 2012;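 active = 50% or more with normal probe brightness, or confirmed in later tests; inconclusive = above 50% with abnormal brightness, or retests that disagree; inactive = below 50% or failed in later tests; about a fifth of its hits are not listed in these tables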;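 note: calls also rest on retests at 20 µM and on dose response follow-up; 0% = protein and probe with vehicle and 100% = probe without protein; strong numbers were not always called active; many hits fall short of the cut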
PABP FP inh: blocks human PABP binding to poly(A) RNA; fluorescence polarization; inhibition, % at 35 µM; hit rate 1% among 290,000; AID 2014;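 active = 50% or more with normal probe brightness, or confirmed in later tests; inconclusive = above 50% with abnormal brightness, or retests that disagree; inactive = below 50% or failed in later tests; about a fifth of its hits are not listed in these tables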;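 note: calls also rest on retests at 20 µM and on dose response follow-up; controls were probe without protein and protein plus probe with vehicle; some compounds called inactive have numbers as strong as hits; many hits fall short of the cut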
Target sequence (P11940 whole entry, looked up): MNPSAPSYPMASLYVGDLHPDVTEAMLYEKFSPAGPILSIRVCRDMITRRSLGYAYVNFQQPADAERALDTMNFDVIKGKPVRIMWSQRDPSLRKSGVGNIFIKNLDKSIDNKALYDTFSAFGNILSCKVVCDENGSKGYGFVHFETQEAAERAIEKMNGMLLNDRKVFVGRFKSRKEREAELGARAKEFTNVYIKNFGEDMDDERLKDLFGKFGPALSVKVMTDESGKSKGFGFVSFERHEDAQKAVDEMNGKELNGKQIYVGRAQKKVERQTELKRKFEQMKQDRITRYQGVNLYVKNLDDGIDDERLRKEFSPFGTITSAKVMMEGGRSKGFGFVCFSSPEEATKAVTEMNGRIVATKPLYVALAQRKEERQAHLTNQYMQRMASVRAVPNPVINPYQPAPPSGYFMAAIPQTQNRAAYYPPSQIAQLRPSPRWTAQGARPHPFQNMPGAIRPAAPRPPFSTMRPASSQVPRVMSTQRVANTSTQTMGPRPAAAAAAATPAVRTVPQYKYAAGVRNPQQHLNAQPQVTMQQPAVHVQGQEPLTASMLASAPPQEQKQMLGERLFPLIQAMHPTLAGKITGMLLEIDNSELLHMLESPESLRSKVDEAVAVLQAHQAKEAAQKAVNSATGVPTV
Rce1 inh: blocks yeast Ras-converting enzyme; yeast membranes, quenched prenylated peptide cleavage fluorescence; calls only; hit rate 0.27% among 290,000;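 active = fall in fluorescence gain of 50% or more versus controls, with final raw signal at or below 3038400; inconclusive = same 50% fall but final raw signal above 3038400; inactive = fall in fluorescence gain under 50%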;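 note: plate controls were neutral control wells for no effect and wells lacking membranes for full effect; tested at 10 µM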
CSC inhib: cancer stem cell inhibition; cancer stem cell-like cells viability, luminescence; hit rate 1.1% among 300,000; inhibition, % at 7.5 µM;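 active = mean at 75% or more and at least half the replicates too; inconclusive = mean and replicates disagree; tested in HMLE shEcad cells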;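 note: 0% = median of negative and 100% = median of positive control wells; the first replicate is given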
Yeast UUG start: yeast start codon fidelity modulation | hit rate 0.13% among 350,000 | activity score, % at 18.7 µM | S. cerevisiae UUG-firefly luciferase reporter, luminescence/redox ratio;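 active = replicate mean at a twofold rise or more, about +100% in these data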;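 note: firefly luciferase made from a UUG start codon reports start codon fidelity; reporter light over untreated wells divided by growth signal over untreated wells; some hits fall short of that in this replicate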
eIF4H FP inh retest: further read-out of eIF4H FP inh, marked with its call; inhibition, %; compound at 20 µM; confirmation average;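 mean of two retest wells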
PABP FP inh retest: also measured in PABP FP inh; calls as there; inhibition, %; compound at 20 µM; confirmation repeats;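 mean of two retest wells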
MT1-MMP act inh RFP: recorded beside MT1-MMP act inh, whose call it bears; RFP signal change, %; measured here: RFP expression control read;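 0 = vehicle wells; hits needed this value within 50% of zero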
Numbers without * were called inactive; i = inactive; ? = inconclusive; · = no result given.

SMILES	MT1-MMP act inh	MT1-MMP act inh RFP	Env fusion inh	eIF4H FP inh	PABP FP inh	Rce1 inh	CSC inhib	Yeast UUG start	others
COC(=O)c1cn(C(=O)c2cccc(Br)c2)c2ccccc12	-1	1	-7	-6	-12	i	-9	-18
O=C(COc1ccccc1Cl)Nc1nc(-c2cccs2)cs1	-2	0	·	9	-12	i	·	-11
O=C(Nc1nnc(SCc2ccccc2Cl)s1)C1COc2ccccc2O1 (configuration not stated)	-4	-8	-66	0	5	i	19	·
CCN(CC)CCOC(=O)c1ccc(NC(=O)CCCN2C(=O)/C(=C/c3cccs3)SC2=S)cc1	0	1	-8	-12	-13	i	24	-3
CC(=O)Nc1c(C)ccc([N+](=O)[O-])c1C	-6	2	6	·	·	·	·	-12
COc1ccc(C(C)(C)C)cc1NC(=O)c1cccc(S(=O)(=O)N2CCN(C(C)=O)CC2)c1	2	-1	27	-4	8	i	-19	1
O=C(O)c1ccc(CS(=O)(=O)c2c(Cl)cccc2Cl)o1	0	2	-4	2	1	i	11	-3
CCOc1ccc(N(CC(=O)NC2CCCCC2)S(=O)(=O)c2ccc(C)cc2)cc1	-3	-4	15	-8	6	i	·	-9
COc1ccccc1CCN1CCCC(CN(C)C(=O)c2ccco2)C1 (configuration not stated)	3	5	3	-16	5	i	-6	-4
O=C(CCN1C(=O)/C(=C/c2ccc(Cl)cc2)SC1=S)Nc1ccc(C(=O)O)cc1	6	9	-18	3	1	i	-1	-2
Cc1oc2cc3oc(=O)c(CCC(=O)N4C[C@H]5C[C@@H](C4)c4cccc(=O)n4C5)c(C)c3cc2c1C	-6	-2	·	8	8	i	0	10
Cc1cc(C)c(C(=O)N2CCCC(CNC(=O)C3(c4ccc(Cl)cc4)CC3)C2)c(=O)[nH]1 (configuration not stated)	0	4	3	-2	-2	i	4	·
CCN(CC)CCN(CC(=O)Nc1c(C)cc(C)cc1C)C(=O)c1ccccc1	-1	3	-6	-2	-1	i	-17	-14
CC(/C=C/c1ccccc1)=N\Nc1nc(-c2ccccc2)cs1	2	-1	·	0	1	i	28	-13
CC(OC(=O)c1nn(C)c(=O)c2ccccc12)C(=O)Nc1ccc(S(N)(=O)=O)cc1 (configuration not stated)	4	4	-1	·	·	i	-9	·
O=C(CNC(=O)c1ccccc1F)OCC(=O)c1c[nH]c2ccccc12	-2	3	·	·	·	·	-24	-9
CN1CCN(c2ccc([N+](=O)[O-])cc2C(=O)Nc2ccccc2)CC1	1	4	0	-12	41	i	-3	·
CCOC(=O)c1cnc(SCC(=O)Nc2sc(C)c(C)c2C#N)nc1N	3	4	-24	-1	-4	i	-5	-7
CC(CCN1CCN(CCO)CC1)c1ccccc1 (configuration not stated)	-1	-1	10	5	4	i	4	-7
NC(=O)COC(=O)c1ccc2c(c1)S(=O)(=O)N=C1CCCCCN12	-1	4	·	-6	-4	i	·	-14
O=C(O)C1CCN(S(=O)(=O)Cc2ccccc2)CC1	-4	-1	3	1	7	i	-10	-16
C[C@]12c3[nH]c4ccccc4c3CCN1C(=O)C(CC(=O)NCCCn1ccnc1)C[C@@H]2C(=O)N1CCOCC1 (some centres not stated)	-1	6	-2	·	·	·	-10	-6
COc1ccccc1NS(=O)(=O)c1cccc(NC(=O)C2CC2)c1	0	-7	0	·	·	·	·	-15
COc1ccccc1-c1cc(C(=O)NCc2cccs2)no1	21	7	-47	0	5	i	1	·
CCOc1ccc(-c2nc(CSCC(=O)NC3CCN(Cc4ccccc4)CC3)c(C)o2)cc1	-1	-9	-79	·	·	·	·	-7
CC1=CC(=C(C#N)C#N)C=C(C)N1CCC(C)C	-4	-1	9	-2	-5	i	-10	·
COc1ccccc1S(=O)(=O)Cc1ccc(C(=O)NCCN2CCCC2)o1	4	2	-3	-3	-9	i	-2	8
Cc1nn(C(=O)c2cccs2)c(N)c1-c1ccccc1	-3	3	-52	-7	-1	i	7	-9
COc1ccc(-c2nc3ccc(C)cc3c(=O)o2)cc1OC	-1	-3	7	0	-10	i	-4	-2
CC(C)NC(=O)c1ccc(N2CCOCC2)nc1	1	5	1	-10	-4	i	-10	-16
COc1ccc(NC(=O)CN(C)C(=O)CNC(=O)c2ccc(C)s2)cc1	2	1	1	·	·	i	-14	6
Cc1ccc(C(=O)COC(=O)CCC(=O)Nc2ccccc2Cl)cc1[N+](=O)[O-]	0	7	0	4.8*	102*	i	-12	-12	eIF4H FP inh retest=110*;PABP FP inh retest=90*
Cc1ccc(O)c(C2=NOC(O)(C(F)(F)C(F)F)C2)c1 (configuration not stated)	-4	-2	3	-3	4	i	-6	-15
OCCOc1nnnn1-c1ccccc1	-1	-2	·	2	-7	i	·	-19
Cc1[nH]n(-c2ccccc2)c(=O)c1C(c1ccccc1[N+](=O)[O-])C(C#N)C#N (configuration not stated)	2	-1	6	0	7	i	-10	8
COc1ccccc1CC(NC(C)=O)C(=O)NC1CCN(c2nnnn2-c2ccccc2)CC1 (configuration not stated)	-14	-6	·	-3	7	·	·	6
CN(C)c1ccc(NC(=O)CN2CCC(NC(=O)C3CCCCC3)CC2)cc1	-1	2	-1	32	17	i	-1	·
COc1ccc(S(=O)(=O)N2CCCC2CNC(=O)C(=O)Nc2ccc(F)cc2)cc1 (configuration not stated)	4	-4	·	·	·	i	12	·
COC(C(=O)Nc1ccnn1C1CCN(Cc2nccs2)CC1)c1ccccc1 (configuration not stated)	-1	3	-6	-8	-16	i	-2	-10
Nc1ncc(C(=O)O)c(-c2ccccc2)n1	0	5	15	·	·	·	·	-30

2 records picked at random from those above, as already listed:
SMILES	MT1-MMP act inh	MT1-MMP act inh RFP	Env fusion inh	eIF4H FP inh	PABP FP inh	Rce1 inh	CSC inhib	Yeast UUG start	others
Cc1[nH]n(-c2ccccc2)c(=O)c1C(c1ccccc1[N+](=O)[O-])C(C#N)C#N (configuration not stated)	2	-1	6	0	7	i	-10	8
Nc1ncc(C(=O)O)c(-c2ccccc2)n1	0	5	15	·	·	·	·	-30

(next part)
SMILES	MT1-MMP act inh	MT1-MMP act inh RFP	Env fusion inh	eIF4H FP inh	PABP FP inh	Rce1 inh	CSC inhib	Yeast UUG start	others
C=CCOC(=O)C1=C[C@H](C2CCCCC2)[C@@H](CCCO)[C@H](OCC)O1	1	-4	-7	7	1	i	12	-2
CC(C)N(Cc1ccccc1)C(=S)Nc1ccc(OC(F)F)cc1	1	2	19	-3	7	i	-13	-11
O=C(CN1C(=O)c2ccccc2C1=O)NC1CCCCCC1	-1	-1	-21	-9	-10	i	·	-10
COc1ccc(C(=O)/C=C/c2cccnc2)c(OC)c1	-2	-3	-14	0	15	i	32	6
Cc1cc(C(=O)N/N=C/c2ccc3c(c2)OCO3)c(C)o1	1	-2	-12	-10	3	i	15	-18
Cc1ccc2cccc(OCCOCCOc3ccccc3Br)c2n1	-4	1	-2	-6	3	i	5	·
CN(CC(=O)Nc1cccc(F)c1)CC(=O)NC(c1ccccc1)c1ccccc1	6	3	9	·	·	·	·	-5
OCC(O)[C@@H](O[C@H]1O[C@H](CO)[C@@H](O)[C@H](O)[C@H]1O)[C@H](O)[C@@H](O)CO (some centres not stated)	-3	1	13	·	·	i	-10	-1
COc1ccc(C2c3[nH]c4ccccc4c3C[C@H]3C(=O)N(c4ccccc4C(=O)N4CCC[C@@H]4C(=O)O)C(=O)N23)cc1 (some centres not stated)	-2	6	·	·	·	·	-11	-9
CC1(C)CC(=O)C(C=NCCN2CCN(C(=O)CCl)CC2)=C(O)C1	2	-2	-17	3	35	i	-8	-4
COc1ccc(Oc2ccc(/C=C/C(=O)c3cccc(OC)c3)cc2[N+](=O)[O-])cc1	-11	-11	·	-6	58	i	·	-15	eIF4H FP inh retest=-4;PABP FP inh retest=7
CC(C)OC(=O)c1ccc(Cn2nnc3ccccc3c2=O)cc1	3	0	-14	2	-10	i	-9	-9
Cc1cccc(C)c1NC(=O)CN(C)C(=O)c1ccccc1C(=O)N(C)Cc1ccccc1	9	10	3	-6	9	·	2	21
Cc1c(N2C(=O)c3ccccc3C2(O)c2ccccc2)c(=O)n(-c2ccccc2)n1C (configuration not stated)	-11	-2	-1	-14	8	i	13	-5
COc1ccc(N(CC(=O)N/N=C/c2cc(OC)ccc2OC)S(=O)(=O)c2ccccc2)cc1	-1	3	-6	9	8	i	-13	-15
CCc1nccn1CCC(=O)N1CCc2c([nH]c3ccccc23)C1CC(C)C (configuration not stated)	-6	1	14	-3	0	i	-18	-14
Cc1ccc(C(=O)Nc2ccc(S(=O)(=O)Nc3cnc4ccccc4n3)cc2)cc1	3	-8	2	4	19	i	-6	-8
Cc1cc(C)c2c(c1)cc(C)c1nnc(SCC(=O)N3CCCc4ccccc43)n12	2	2	-1	4	12	i	2	-1
Cc1cc(N)n(-c2ccc(C)c(C)c2)n1	-2	1	-33	-5	?	i	·	·
CC(=O)c1ccc(S(=O)(=O)N2CCC(Oc3ccc(-n4cnnn4)cc3)CC2)cc1	2	3	-3	-12	2	i	-12	-3
CC(C)OCCCNc1nc2c([nH]1)c(=O)n(C)c(=O)n2C	3	4	-55	6	0	i	-5	7
Cc1noc(C)c1-c1ccc(C(=O)Nc2cccc(NS(C)(=O)=O)c2)c2occc12	14	9	12	·	·	·	·	-2
Cc1cc(CN2CCCCC2C(=O)Nc2ccc(Oc3cccnc3)cc2)oc1C (configuration not stated)	-3	-5	-9	-4	-1	i	37	-31
Cc1ccc(-c2nc3ccccc3[nH]c2=O)cc1	-1	1	-42	5	1	i	-1	-13
O=C(OCc1nc(-c2ccccc2)oc1COC(=O)c1ccco1)c1ccco1	5	5	·	0	8	i	1	-4
COc1ccccc1C(C)NCC(=O)NCc1ccc(C)cc1 (configuration not stated)	3	5	-1	4	8	i	-4	5
CC(CN1CCN(Cc2ccccc2)CC1)OC(=O)c1ccco1 (configuration not stated)	0	1	5	-7	-4	i	-1	·
CC(=O)c1cc2c(C)cc(=O)oc2cc1O	-11	-4	·	8	8	i	3	-17
CCCc1c(O)nc(SCC(=O)N2CCCCC2)[nH]c1=O	3	6	-7	6	6	i	-5	-5
N#Cc1c(NCCO)ccc([N+](=O)[O-])c1NCCO	-2	3	0	-4	0	i	4	-5
COc1ccc(C(=O)CSc2ccc(-c3ccco3)nn2)cc1	7	6	·	86	-12	i	-19	-18	eIF4H FP inh retest=-7;PABP FP inh retest=9
Cc1ccc(C)c(S(=O)(=O)N2CCN(C(=O)c3n[nH]c(=O)c4ccccc34)CC2)c1	-11	-8	·	·	·	·	-1	-22
O=C(c1cc([N+](=O)[O-])ccc1N1CCOCC1)N1CCN(c2ccc([N+](=O)[O-])cc2)CC1	0	-8	33	·	·	i	-5	-18
O=[N+]([O-])c1ccc(N2CCN(Cc3ccncc3)CC2)cc1	3	-7	3	6	10	i	67	-3
CCOc1ccc(C(=O)N2CCC3(CC2)NCCc2[nH]cnc23)cc1OCC	1	1	-10	2	-14	i	7	-20
CCOC(=O)C1CCCN(C(=O)/C(=C/c2ccco2)NC(=O)c2ccccc2)C1 (configuration not stated)	-6	1	-7	11	8	i	10	-12
Cc1cccn2c(=O)c(C=Nc3ccccc3)c(NCCO)nc12	-4	-2	·	6	12	i	·	-15
Nc1ccc(-n2c(N)c(C(=O)NCc3ccc4c(c3)OCO4)c3nc4ccccc4nc32)cc1	-22	-6	-21	·	·	i	-5	-13
COc1ccc(/C=C/C(=O)N[C@@H](C)C(=O)O)cc1	-4	1	·	-4	65	i	8	-16	eIF4H FP inh retest=-6;PABP FP inh retest=37

These rows are one share of the data; count on the stated rates, not on these rows.
